NS1 inh = influenza NS1 inhibition; S. cerevisiae slowed by influenza A NS1, growth recovery by OD600; Potency, µM (titrated, usually from 46.1 µM), inactives show at the highest dose activity, positive = more growth; hit rate 0.4% among 270,000; active means well fitted rising curve with a large enough effect; inconclusive means small, poorly fitted or top-dose-only effect; inactive means no such curve, though single readings can be large or run the other way; also: nearly all actives have a fitted effect of over 50% in size
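S. cerevisiae expressing influenza A NS1, grown in glucose, washed, then diluted 1:100 into pH 6.0 -URA galactose medium with 23 nl compound. Growth recovery read as OD600; NS1-free strain serves as control.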
StopGo reporter = FMDV 2A StopGo reporter, luciferase signal | human cells with a luciferase reporter of 2A StopGo recoding; control for the full effect not named in the record | Potency, µM (series often up to 57.9 µM), inactives show at the highest dose signal change, negative = less light | hit rate 1.2% among 410,000; active = well fitted falling curve with a large enough effect; inconclusive = small, poorly fitted or top-dose-only effect; inactive = no such curve, though single readings can be large or run the other way; tested in HEK293T cells; also: % is scaled to controls: 0 for no effect and ±100 for the full control effect; nearly all actives have a fitted effect of over 45% in size; luciferase light after 4 h
LASV entry inh = blocks Lassa virus binding to or entry into cells. Lassa virus pseudotype entry inhibition, cell reporter; control for the full effect not named in the record. Potency, µM (series often up to 37.9 µM), for inactives: at the highest dose activity change, negative = inhibition, hits mostly inhibitors. hit rate 1.2% among 300,000; active means well fitted inhibition curve with a large enough effect; inconclusive means small, poorly fitted or top-dose-only effect, or effect the other way; inactive means flat fitted curve, though single readings scatter; tested in HEK293 cells; also: % is scaled to controls: 0 for no effect and ±100 for the full control effect; nearly all actives have a fitted effect of over 50% in size; luciferase read-out
SARS PLpro yeast = blocks SARS-CoV papain-like protease in a yeast assay | S. cerevisiae expressing SARS-CoV PLpro, growth rescue; control for the full effect not named in the record | Potency, µM (top dose mostly 32.9 µM), for the others: top-dose activity, positive = growth rescue | hit rate 0.19% among 330,000 | AID 485353; active means well fitted rising curve with a large enough effect; inconclusive means small, poorly fitted or top-dose-only effect; inactive means no such curve, though single readings can be large or run the other way; also: 0% is about no effect; nearly all actives have a fitted effect of over 55% in size; growth read by luminescence after 48 h
MARV entry inh = Marburg virus entry inhibition; Marburg virus pseudotyped entry inhibition, cell reporter; control for the full effect not named in the record; about a third of the inactives were read at about 46 µM; Potency, µM (titrated, usually from 37.8 µM), for the others: at the top dose activity change, negative = inhibition, usual class: inhibitors; hit rate 1.8% among 300,000; AID 540276; active = well fitted inhibition curve with a large enough effect; inconclusive = small, poorly fitted or top-dose-only effect, or effect the other way; inactive = flat fitted curve, though single readings scatter; tested in HEK293 cells; about a fifth of its hits are not listed in these tables; also: % is scaled to controls: 0 for no effect and ±100 for the full control effect; luciferase read-out
Cruzain Triton = inhibitors of Trypanosoma cruzi cruzain with detergent | hit rate 0.43% among 200,000 | purified cruzain, Z-FR-AMC fluorescence, 0.01% Triton | AID 1478 | P25779 | Potency, µM, for the others: max response, negative = inhibition, most hits filed as inhibitors;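 also: plate controls were neutral wells for no effect and buffer without enzyme for full effect; nearly all actives have a fitted effect of over 40% in size; top concentration of the series not given in the record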
Target sequence (P25779 123-467 limits assumed): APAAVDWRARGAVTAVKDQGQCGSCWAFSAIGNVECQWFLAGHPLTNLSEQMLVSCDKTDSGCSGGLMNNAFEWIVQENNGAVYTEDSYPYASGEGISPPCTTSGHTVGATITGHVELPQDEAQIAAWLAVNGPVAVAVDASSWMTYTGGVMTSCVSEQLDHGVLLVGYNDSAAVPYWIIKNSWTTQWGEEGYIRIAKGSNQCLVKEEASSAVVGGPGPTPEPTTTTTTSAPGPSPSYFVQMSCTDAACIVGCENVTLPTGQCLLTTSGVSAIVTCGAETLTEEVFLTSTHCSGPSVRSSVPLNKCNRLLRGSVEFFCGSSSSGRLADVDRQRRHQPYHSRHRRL
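Cysteine protease activity tested under reducing, mildly acidic conditions (100 mM sodium acetate pH 5.5, 5 mM DTT) plus 0.01% Triton X-100. Cruzain 1.5 nM; substrate Z-FR-AMC 2 uM; 15 min compound preincubation at room temperature.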
RE007 growth inh = less growth of the S. pombe RE007 Vpr strain; S. pombe RE007 Vpr strain, BacTiter-Glo ATP luminescence, 24 h; control for the full effect not named in the record; Potency, µM (series often up to 92.2 µM), inactives show at the top dose activity change, negative = less growth; hit rate 0.21% among 360,000; active = well fitted falling curve with a large enough effect; inconclusive = small, poorly fitted or top-dose-only effect; inactive = no such curve, though single readings can be large or run the other way;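 also: % is scaled to controls: 0 for no effect and ±100 for the full control effect; nearly all actives have a fitted effect of over 50% in size; the assay follows cell death caused by Vpr and the record does not say whether a fall means rescue or toxicity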
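Fission yeast strain RE007, carrying one chromosomally integrated HIV-1 vpr copy, was seeded at OD 0.01 in PMG+AL medium with 23 nL pinned compound. After 24 h at 30 °C and 99% humidity, viability was read by BacTiter-Glo luminescence.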
Cruzain inh noDet = inhibitors of Trypanosoma cruzi cruzain without detergent; Potency, µM, for inactives: max response, negative = inhibition, most hits filed as inhibitors; P25779; hit rate 2.3% among 200,000; purified cruzain, Z-FR-AMC fluorescence, no detergent; AID 1476;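 also: plate controls were enzyme without inhibitor for no effect and buffer without enzyme for full effect; nearly all actives have a fitted effect of over 40% in size; top concentration of the series not given in the record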
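Purified cruzain at 1.5 nM, pre-incubated 15 min with compound at room temperature in 100 mM sodium acetate pH 5.5, 5 mM DTT, 0.00005% Triton X-100. Reaction started with 2 uM Z-FR-AMC; AMC fluorescence increase over 60 s gives rate.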
* hit, by the source's call; ? = inconclusive; . = not tested or not shown; & = joins results of further samples; ! = not active in a repeat; [ ] = another dose, or the depositor's remark. Unless noted, calls follow the shape of the dose curve; as a rule, active = well fitted curve in the direction sought with a large enough effect; inconclusive = small, poorly fitted or top-dose-only effect, or another doubt; inactive = no such curve, though single readings can be large; an effect the other way counts as inactive or inconclusive. Potency is read from the fitted curve at half-maximal effect.

Fields: NS1 inh	StopGo reporter	LASV entry inh	SARS PLpro yeast	MARV entry inh	Cruzain Triton	RE007 growth inh	Cruzain inh noDet
Cc1ccc(-n2c(=O)c3c4c(sc3n(CC(=O)C(C)(C)C)c2=O)CCCCC4)cc1C
 : .	-11.0%	2.7%[46.1 µM]	.	1.6%[46.1 µM]	-2.7%	.	-10.0%
CC1CCN(CCCn2c(SCC(=O)Nc3ccccc3Cl)nc3ccccc3c2=O)CC1
 : .	-12.6%	6.31µM*	-0.9%	?	.	-8.0%	.
Cn1nccc1C(=O)N1CCC(Cc2ccccc2)CC1
 : -6.1%	-20.8%	.	-5.3%	.	.	0.4%	.
Cc1cc(=O)[nH]c(-n2nc(C)c(Oc3ccccc3O)c2C)n1
 : -25.4%	-5.5%	-16.1%	-9.8%	-0.7%	1.8%	26.3%	-3.6%
COc1ccccc1CNS(=O)(=O)c1c(C)noc1C
 : -3.4%	2.7%	2.1%	6.1%	-5.5%[46.1 µM]	1.2%	-0.3%	3.9%
Cc1ccccc1NN=Nc1nc2c([nH]1)c(=O)n(C)c(=O)n2C
 : -2.7%	1.4%	5.5%	4.2%	?	-4.7%	-16.1%	0.1%
Cc1ccc(-c2nnc(Nc3ccc(F)cc3)c3ccccc23)cc1S(=O)(=O)NC(C)C
 : .	10.5%	13.9%[46.1 µM]	.	-17.4%[46.1 µM]	-4.5%	.	-10.5%
COc1ccc(C(=O)COC(=O)CCCC(=O)Nc2ccc(C(C)=O)cc2)cc1
 : .	42.8%[activator]	13.7%[46.1 µM]	.	?	-3.4%	.	12.9%
COc1ccc(Nc2nnc(SCc3cc(=O)n4ccsc4n3)s2)cc1
 : 4.3%	12.4%	-6.2%	-15.3%	21.7%	-14.7%	-0.6%	-7.3%
O=C(Nc1cccc(OC(=O)c2cccnc2)c1)c1cccnc1
 : -21.4%	.	0.0%	0.5%	-20.4%	2.9%	-4.4%	5.4%
COC(=O)c1c(NC(=O)Nc2ccc(Cl)cc2)sc(C)c1C
 : -4.2%	4.1%&-11.3%	?	1.8%	1.7%[46.1 µM]	0.4%&1.5%	-0.5%	25.1µM*!
O=C(CN1C=NS(=O)(=O)c2ccc(C(F)(F)F)cc21)Nc1cccc(C(F)(F)F)c1
 : .	?	1.6%[46.1 µM]	.	.	-4.6%	.	-4.6%
CCn1c(SCc2nc3ccccc3c(=O)[nH]2)nc2ccccc21
 : .	?	?	0.0%	?	.	-4.1%	.
COc1ccc(-c2nnc(SCC(=O)c3ccco3)n2-c2ccccc2)cc1
 : 0.6%	-0.4%	0.0%	3.7%	10.2%	-0.2%	-2.6%	-3.5%
CC(C)Cn1c(N)c(C(=O)CSc2ncnc3sc4c(c23)CCCC4)c(=O)n(C)c1=O
 : -1.2%	-18.4%	7.4%	-2.9%	?	-3.9%	0.2%	10.4%
O=C(NNC(=O)c1ccccn1)c1cccc([N+](=O)[O-])c1
 : .	17.7%	.	-1.3%	-26.0%[46.1 µM]	.	8.1%	.
O=C(Nc1c2c(nn1-c1ccc(Cl)cc1)CS(=O)(=O)C2)c1ccccc1
 : 9.0%	0.0%	-10.1%	-4.0%	?	.	3.4%	.
CC(C)c1nc2sc3c(=S)nc[nH]c3c2c2c1CCC2
 : -2.8%	-14.0%	7.6%	-0.9%	25.5%	.	-10.9%	.
CC(Oc1cccc(Br)c1)C(=O)Nc1cccc(S(=O)(=O)N2CCOCC2)c1 (stereo not given)
 : .	10.7%	-14.7%	2.2%	-24.9%	.	10.5%	.
CCN(C(=O)Cc1c(C(=O)O)[nH]c2ccccc12)c1ccc(OC)cc1
 : .	-18.3%&-7.2%	-9.5%&25.4%[46.1 µM]	-0.5%	-10.2%&-12.8%[46.1 µM]	-0.9%	8.4%	-7.2%
CCOc1ccccc1NS(=O)(=O)c1ccc2oc(=O)c3ncn(C)c3c2c1
 : .	0.0%	-2.8%[46.1 µM]	.	.	-1.0%	.	-2.2%
N#Cc1ccc(N)cc1OCCCN1CCCCC1
 : .	5.5%	?	.	-14.9%[46.1 µM]	.	-3.8%	.
CCCn1ccc2c(OCC(=O)Nc3ccc(NC(C)=O)cc3)cccc2c1=O
 : .	-11.5%	-4.4%	1.3%	-5.5%	.	-10.7%	.
CCC(=O)N1CCc2cc(Br)cc(S(=O)(=O)NCc3ccco3)c21
 : 6.6%	60.1%[activator]	-0.5%	-4.9%	?	1.2%	9.7%	-23.9%
O=Nc1c(O)n(Cc2ccc(Cl)c(Cl)c2)c2ccccc12
 : -46.3%	?	0.0%	-23.4%	-23.6%	-13.8%	?	-3.5%
COc1cc(CN2CCN(S(=O)(=O)c3ccccc3)CC2)cc(OC)c1OC
 : 14.3%	-19.0%	.	-11.8%	.	.	9.0%	.
Cc1c(C(=O)N2CCC(C)CC2)c(S(=O)(=O)NCc2ccc(Br)cc2)c(C)n1C
 : .	57.7%[activator]	6.5%[46.1 µM]	.	.	-1.1%	.	8.2%
O=C1NC(c2ccc(-c3ccccc3[N+](=O)[O-])o2)C(C(=O)c2ccc(F)cc2)C(O)(C(F)(F)F)N1 (stereo not given)
 : 2.4%	-19.5%	-27.7%	15.2%	-18.9%	-10.4%	-0.2%	8.9%
O=C1NCCN2CCCC12 (stereo not given)
 : -0.5%	-18.2%	1.9%	0.5%	19.2%	5.6%	-0.4%	3.2%
CCC(=O)Nc1nnc(SCC(=O)Nc2ccc3c(c2)OCO3)s1
 : -8.4%	-0.2%	4.0%	-8.8%	29.7%	.	-4.0%	.

Exported comma-delimited: entries from further up.
SMILES,NS1 inh,StopGo reporter,LASV entry inh,SARS PLpro yeast,MARV entry inh,Cruzain Triton,RE007 growth inh,Cruzain inh noDet
CCCn1ccc2c(OCC(=O)Nc3ccc(NC(C)=O)cc3)cccc2c1=O,.,-11.5%,-4.4%,1.3%,-5.5%,.,-10.7%,.
COc1cc(CN2CCN(S(=O)(=O)c3ccccc3)CC2)cc(OC)c1OC,14.3%,-19.0%,.,-11.8%,.,.,9.0%,.

Remaining list, next part:
Fields: NS1 inh	StopGo reporter	LASV entry inh	SARS PLpro yeast	MARV entry inh	Cruzain Triton	RE007 growth inh	Cruzain inh noDet
Cc1cc(C)cc(C(=O)NCC(=O)OCN2C(=O)c3ccccc3C2=O)c1
 : .	13.1%	-2.5%	-2.0%	8.1%	.	-2.2%	.
O=C(c1ccccc1)c1nc2c(n1O)CCCCC2
 : .	0.9%	19.5%[46.1 µM]	0.2%	-0.5%[46.1 µM]	.	-16.4%	.
Cc1c(CN2CCC(CO)(CCOc3ccccc3)CC2)[nH]c2c(Cl)cccc12
 : -0.5%	-25.7%	.	-1.3%	.	.	8.1%	.
CCNC(=O)COC(=O)/C=C/c1ccccc1[N+](=O)[O-]
 : -4.3%	-3.4%	2.2%	5.7%	1.4%[46.1 µM]	0.2%	-3.4%	-2.4%
CCCN(CCC)C1=N/C(=C\c2ccco2)C(=O)N1c1ccccc1
 : 1.12µM*	-6.1%	15.8%	0.1%	-3.4%	-10.6%	-13.1%	-2.6%
Cn1c(=O)cc(SCC(=O)NCc2ccco2)c2ccccc21
 : -3.9%	12.9%	1.0%	4.4%	11.2%	4.7%	11.1%	6.3%
Cc1ccc(/C=C/S(=O)(=O)Nc2ccc(C)cc2)cc1
 : .	3.8%	-8.1%[46.1 µM]	-4.2%	27.7%[46.1 µM]	.	-1.4%	.
Cc1cccc(-c2nc(C#N)c(NCC3CCCO3)o2)c1 (stereo not given)
 : -8.2%	29.3%	?	0.0%	-9.7%[46.1 µM]	.	8.3%	.
Cc1ccc(C2=NC(C(F)(F)F)(C(F)(F)F)c3c(n(-c4ccc(F)cc4)c(=O)[nH]c3=O)N2)cc1
 : 0.0%	?	?	10.4%	?	-5.6%	-31.9%	1.0%
CCc1cccc(C)c1NC(=O)c1cc(-c2ccncc2)nc2ccccc12
 : .	?	-0.4%	-2.4%	?	.	1.4%	.
O=C(CN1C(=O)/C(=C/c2ccccc2)SC1=S)Nc1ncc(Cc2ccccc2)s1
 : 5.3%	-1.4%	-0.9%	-1.2%	-0.9%	-2.0%	21.9%	3.98µM*
Cc1c(NC(=O)C(C)N2C(=O)C3CCCCC3C2=O)c(=O)n(-c2ccccc2)n1C (stereo not given)
 : .	-2.7%	-11.3%	-2.9%	11.8%[46.1 µM]	.	-7.0%	.
CCc1ccc(C(C)(O)C(CN2CCOCC2)c2ccccc2)cc1 (stereo not given)
 : 1.5%	-18.1%	10.3%[46.1 µM]	1.0%	-24.1%[46.1 µM]	.	-4.8%	.
COc1ccccc1NC(=O)C(=O)NCC(c1ccc2c(c1)OCO2)N1CCN(C)CC1 (stereo not given)
 : .	-9.7%	-12.3%[46.1 µM]	.	.	0.0%	.	-1.6%
O=C1CSC(c2cccnc2)N1CC1CC1 (stereo not given)
 : 4.4%	1.4%	-1.0%[46.1 µM]	-3.7%	-4.0%[46.1 µM]	.	-3.1%	.
C[C@@H](C(=O)O)[C@@H]1C[C@@]1(C)[C@@H](NC(=O)OCc1ccccc1)c1ccccc1
 : 6.3%	-13.0%	5.0%	-0.6%	16.1%	-1.3%&2.0%	-7.3%	1.0%&4.1%
COc1cc(Cl)ccc1Nc1ncc(C(=O)N2CCN(c3ccccc3OC)CC2)c2ccccc12
 : .	?	?	.	-21.8%[46.1 µM]	-0.4%	.	-0.4%
Cn1ncc(Cl)c1C(=O)N1CCC(Cc2ccccc2)CC1
 : -19.9%	-1.7%	.	-2.9%	.	.	-6.4%	.
COC(=O)N1C(=O)[C@@](Cc2ccccc2)(c2ccccc2)N1C(=O)OC
 : 13.6%	?	.	-4.5%	.	.	-1.7%	.
